Source: PubChem BioAssay
PABP FP inh – PABP-poly(A) binding inhibition; PABP-poly(A) RNA binding, fluorescence polarization; hit rate 1% among 290,000; P11940; inhibition, % at 35 µM;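 active = 50% or more with normal probe brightness, or confirmed in later tests; about a fifth of its hits are not listed in these tables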;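 note: calls also rest on retests at 20 µM and on dose response follow-up; controls were probe without protein and protein plus probe with vehicle; some compounds called inactive have numbers as strong as hits; many hits fall short of the cut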
Target sequence (P11940 whole entry, looked up): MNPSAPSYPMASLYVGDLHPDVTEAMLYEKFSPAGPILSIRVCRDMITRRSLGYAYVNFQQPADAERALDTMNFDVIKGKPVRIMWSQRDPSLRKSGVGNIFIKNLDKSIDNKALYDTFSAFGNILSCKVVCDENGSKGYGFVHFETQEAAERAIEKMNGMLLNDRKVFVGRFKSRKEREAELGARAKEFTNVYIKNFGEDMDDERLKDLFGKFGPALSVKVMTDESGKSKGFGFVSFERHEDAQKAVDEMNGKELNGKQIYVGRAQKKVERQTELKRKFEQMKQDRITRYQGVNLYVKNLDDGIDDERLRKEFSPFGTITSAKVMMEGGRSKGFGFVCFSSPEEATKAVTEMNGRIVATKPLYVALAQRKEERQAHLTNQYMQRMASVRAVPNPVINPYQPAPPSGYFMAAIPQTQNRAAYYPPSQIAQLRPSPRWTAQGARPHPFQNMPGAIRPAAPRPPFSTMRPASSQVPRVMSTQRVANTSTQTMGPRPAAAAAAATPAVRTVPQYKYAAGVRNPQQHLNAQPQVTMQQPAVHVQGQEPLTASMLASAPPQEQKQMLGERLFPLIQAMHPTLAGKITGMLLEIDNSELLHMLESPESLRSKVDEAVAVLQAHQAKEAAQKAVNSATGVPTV
CSC inhib – cancer stem cell inhibition | cancer stem cell-like cells viability, luminescence | inhibition, % at 7.5 µM | hit rate 1.1% among 300,000;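 active = mean at 75% or more and at least half the replicates too; tested in HMLE shEcad cells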;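 note: 0% = median of negative and 100% = median of positive control wells; the first replicate is given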
Rce1 inh – yeast Ras-converting enzyme inhibition. yeast membranes, quenched prenylated peptide cleavage fluorescence. Q03530. hit rate 0.27% among 290,000. calls only. AID 2563;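 active = fall in fluorescence gain of 50% or more versus controls, with final raw signal at or below 3038400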;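 note: plate controls were neutral control wells for no effect and wells lacking membranes for full effect; tested at 10 µM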
eIF4H inh – inhibitors of RNA binding by human eIF4H | Q15056 | eIF4H fluorescence polarization binding assay | inhibition, % at 35 µM | hit rate 0.94% among 290,000 | AID 2012;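 active = 50% or more with normal probe brightness, or confirmed in later tests; about a fifth of its hits are not listed in these tables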;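 note: calls also rest on retests at 20 µM and on dose response follow-up; 0% = protein and probe with vehicle and 100% = probe without protein; strong numbers were not always called active; many hits fall short of the cut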
Env fusion inh – inhibitors of HIV Env-mediated cell fusion. AID 651610. hit rate 1.1% among 360,000. inhibition, % at 12.3 µM. HeLa-JRFL Env/CEM21 cell fusion, luciferase;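 active = mean replicate inhibition score of at least 50 and every replicate individually at or above 50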;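 note: 0% = plate neutral controls and 100% = maraviroc near 300 nM; one replicate is shown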
MT1-MMP act inh – inhibitors of human MT1-MMP activation; AID 651647; GFP/RFP ratio change, % at 20 µM; hit rate 0.061% among 360,000; HT1080 RFP-PRO-GFP cells, GFP/RFP ratio fluorescence, overnight; percent of plate control window, DMSO zero; P50281;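 active = GFP/RFP ratio change of at least 30% with cell ATP level not reduced by more than half and red fluorescence within 50% of control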; note: strong numbers were not always called active
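Test system: HT1080 cells expressing an RFP-PRO-GFP fluorescent reporter construct / Compound dosing: single-point 20 µM compound, 1% DMSO / Schedule: cells overnight before dosing, compound overnight, 37 °C, 5% CO2 / Evaluation: GFP/RFP fluorescence ratio / Control set: DMSO and RFP-L50D-GFP cell wells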
UUG fidelity – alters start codon recognition fidelity in yeast; S. cerevisiae UUG-firefly luciferase reporter, luminescence/redox ratio; activity score, % at 18.7 µM; hit rate 0.13% among 350,000; AID 602363;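 active = replicate mean at a twofold rise or more, about +100% in these data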;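 note: firefly luciferase made from a UUG start codon reports start codon fidelity; reporter light over untreated wells divided by growth signal over untreated wells; some hits fall short of that in this replicate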
eIF4H inh retest – further read-out of eIF4H inh, marked with its call; inhibition, %; compound at 20 µM; confirmation average;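 mean of two retest wells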
PABP FP inh retest – also measured in PABP FP inh; calls as there; inhibition, %; compound at 20 µM; confirmation repeats;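 mean of two retest wells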
MT1-MMP act inh RFP – second read-out of MT1-MMP act inh, no call of its own (marks repeat the call); RFP signal change, %; measured here: RFP expression control read;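 0 = vehicle wells; hits needed this value within 50% of zero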
The depositor's hits bear a star; i = inactive; · = not tested or not shown; & = joins results of further samples; [ ] = dose if it differs, or a comment.

SMILES | PABP FP inh | CSC inhib | Rce1 inh | eIF4H inh | Env fusion inh | MT1-MMP act inh | MT1-MMP act inh RFP | UUG fidelity | others
COc1ccc(/C=N/NC(=O)c2ccccc2O)cc1COc1ccccn1 | -2 | -11 | i | -6 | -6 | 5 | 3 | -12
O=C(Nc1ccc2oc(-c3ccccc3F)nc2c1)c1ncn[nH]1 | -4 | 28 | i | 24 | -218 | 7 | 2 | -18
COc1ccc(-n2c(C)nnc2SCC(=O)N2C(C)CCCC2C)cc1 (stereo unspecified) | 11 | -3 | i | 2 | · | -1 | 4 | -2
Cc1cccc(S(=O)(=O)N(C)C[C@H]2OCc3cn(nn3)CCCC(=O)N([C@@H](C)CO)C[C@@H]2C)c1 | · | · | · | · | -15[16.7 µM] | 0 | 6 | -15&-12&-17
COCC(C)n1c(C)cc(C(=O)COc2ccc(C)nc2[N+](=O)[O-])c1C (stereo unspecified) | -2.1* | -4 | i | 70* | 5 | -2 | 7 | · | eIF4H inh retest=70*;PABP FP inh retest=57*
COc1ccc(CN2CCCCC2c2cccnc2)c(OC)c1C (stereo unspecified) | 22 | 4 | i | -2 | -40 | 2 | 4 | -13
O=C(CCC1CCCC1)c1c(O)c2ccccc2oc1=O | -5 | 40 | i | -10 | 2 | -11 | -9 | -9
CCCC(=O)Nc1ccccc1NC(C)=O | 1 | 5 | i | -4 | -99 | -2 | 1 | -23
O=C1COc2ccc(C(=O)COC(=O)c3cc(S(=O)(=O)NCc4ccccc4)ccc3O)cc2N1 | -2 | -5 | i | 1 | 4 | -1 | -3 | ·
CN(C)c1ccccc1C(=O)N1CCCC(C(=O)c2ccc3ccccc3c2)C1 (stereo unspecified) | -6 | 12 | i | 8 | 20 | -6 | -5 | ·
COc1ccc(-n2nc(C(=O)c3cccs3)cc(-c3nc4ccccc4[nH]3)c2=N)cc1 | 3 | 49 | i | 23 | -231 | -36 | 2 | -12
O=C(c1cncs1)N1CCCC(CNS(=O)(=O)c2cccs2)C1 (stereo unspecified) | -4 | -10 | i | -16 | 14 | 0 | 5 | ·
COc1ccc(NC(=O)CSc2nnc(-c3cccs3)n2Cc2ccco2)cc1OC | -7 | -10 | i | -2 | 41 | 0 | -5 | -8
Cc1cc(C)c(C2C(C#N)=C(N)Oc3n[nH]c(C)c32)cc1CN1CCOCC1 (stereo unspecified) | 1 | -2 | i | 2 | · | -7 | 0 | ·
O=c1cc(CN2CCc3ccccc3C2)nc2sccn12 | 0 | 3 | · | 7 | -10 | 4 | 3 | -1
Cn1c2ccccc2c2cc(C(=O)OCC(=O)N3CC(=O)Nc4ccccc43)sc21 | 22 | -10 | i | 18 | · | -20 | -9 | 23
COc1cc(C(=O)NNC(=O)Nc2ccc([N+](=O)[O-])cc2)cc(OC)c1OC | 0 | -2 | i | -1 | 4 | -1 | -3 | -5
CC(=O)[C@@]1(O)CC[C@H]2[C@@H]3C[C@H](C)C4=CC(=O)C=C[C@]4(C)[C@@]3(F)[C@@H](O)C[C@@]21C | 18 | -6 | i | -7 | i | -2 | 0 | -7
COc1ccc(NS(=O)(=O)c2ccc(C)c(C(=O)N3CCC3)c2)cc1 | · | 5 | i | · | · | 0 | 3 | -7
NS(=O)(=O)c1cc(C(=O)OCC(=O)N2CCc3ccccc3C2)ccc1Cl | · | · | · | · | -5 | 4 | 5 | 9
CCN(CC)S(=O)(=O)c1cc([N+](=O)[O-])ccc1NNC(=O)Nc1ccccc1OC | 4 | -1 | i | -7 | -38 | 7 | -1 | -4
Cc1cccc2cc(/C=C3\N=C(c4ccccc4)OC3=O)c(N3CCOCC3)nc12 | 2 | -12 | i | -7 | -34 | 0 | 3 | -32
CCN(CC)S(=O)(=O)c1ccc(N2CCOCC2)c(NC(=O)c2ccc(OC)c([N+](=O)[O-])c2)c1 | 11 | -3 | i | -4 | -7 | -1 | -2 | 6
COc1ccccc1-c1nnc(SCc2nc3ccccc3[nH]2)n1C | -8 | -18 | i | -2 | · | 2 | -3 | -16
O=C(O)c1cc2sccc2s1 | 3 | 1 | i | -6 | · | · | · | ·
COc1ccc(/C=C2\SC(=Nc3ccccc3Cl)NC2=O)c(OC)c1 | · | · | · | · | -66 | -3 | -10 | -3
CCOc1cccc(OCCCCn2cnc3ccccc3c2=O)c1 | -5 | 4 | i | -2 | 19 | -4 | -3 | -5
COC(=O)c1ccc(CNC(=O)COC(=O)/C=C/c2cccc(OC)c2)cc1 | · | · | · | · | 22 | -5 | 4 | -7
COc1ccc(NC(=O)Cn2c(=O)oc3cc(S(=O)(=O)N4CCCC4)ccc32)c(OC)c1 | 1 | 3 | i | 5 | -1 | 3 | -9 | -23
C=C1C(=O)[C@]23C[C@H]1CC[C@H]2[C@]1(C)[C@@H](OC(C)=O)CC[C@@](C)(C(=O)O)[C@H]1C[C@@H]3OC(C)=O | · | · | · | · | -20 | 1 | -4 | 4

Reprinted from the part before: 7 compounds; new compounds follow.
SMILES | PABP FP inh | CSC inhib | Rce1 inh | eIF4H inh | Env fusion inh | MT1-MMP act inh | MT1-MMP act inh RFP | UUG fidelity | others
COc1ccccc1-c1nnc(SCc2nc3ccccc3[nH]2)n1C | -8 | -18 | i | -2 | · | 2 | -3 | -16
O=C(O)c1cc2sccc2s1 | 3 | 1 | i | -6 | · | · | · | ·
COc1ccc(/C=C2\SC(=Nc3ccccc3Cl)NC2=O)c(OC)c1 | · | · | · | · | -66 | -3 | -10 | -3
CCOc1cccc(OCCCCn2cnc3ccccc3c2=O)c1 | -5 | 4 | i | -2 | 19 | -4 | -3 | -5
COC(=O)c1ccc(CNC(=O)COC(=O)/C=C/c2cccc(OC)c2)cc1 | · | · | · | · | 22 | -5 | 4 | -7
COc1ccc(NC(=O)Cn2c(=O)oc3cc(S(=O)(=O)N4CCCC4)ccc32)c(OC)c1 | 1 | 3 | i | 5 | -1 | 3 | -9 | -23
C=C1C(=O)[C@]23C[C@H]1CC[C@H]2[C@]1(C)[C@@H](OC(C)=O)CC[C@@](C)(C(=O)O)[C@H]1C[C@@H]3OC(C)=O | · | · | · | · | -20 | 1 | -4 | 4
COc1cc(C(=O)NCCOc2ccccc2)cc(OC)c1OC | -11 | -14 | i | -4 | -14 | -2 | -1 | -6
CCOC(=O)c1ccc(S(=O)(=O)N2CCC(N3CCCCCC3)CC2)cc1 | · | · | · | · | -17 | -2 | 1 | -34
Cc1cc(C)c(NC(=O)C(C)(C)C)c(Cl)c1 | 5 | 0 | i | 2 | · | 0 | 2 | -13
O=C1CSC(=Nc2ccccc2Cl)N1 | -11 | 1 | · | 6 | -32 | 3 | 3 | ·
Cc1ccc(S(=O)(=O)N2CCOC2C(Cl)(Cl)Cl)cc1 (stereo unspecified) | 0 | 7 | i | 2 | 12 | 7 | -5 | 0
Cc1noc(C)c1C(=O)OC(C)C(=O)c1c[nH]c2ccccc12 (stereo unspecified) | · | · | · | · | -5 | 7 | -1 | 0
CCc1noc(C)c1C(=O)Nc1nc(-c2ccccc2)cs1 | · | -12 | i | · | · | 0 | -7 | -31
Cc1nnc2sc(-c3csc4c3CCCC4)nn12 | -2 | -11 | i | 9 | -19 | 0 | 2 | ·
CCOC(=O)COc1nc2c(c(-c3ccco3)c1C#N)CCc1ccccc1-2 | 0 | · | i | 4 | 57* | -1 | -2 | -17
COc1cc2[nH]c(=O)n(CCCCCC(=O)NCCCN3CCOCC3)c(=O)c2cc1OC | -2 | -14 | i | -8 | -64 | 6 | -5 | -9
Clc1ccc(-c2n[nH]c3c2CCCC3)cc1 | 1 | -11 | i | 4 | -36 | 1 | 2 | ·
O=c1cc(C(F)(F)F)[nH]c2c(C(F)(F)F)cccc12 | 1 | 25 | i | 0 | · | 15 | -34 | -19
CC1(C)Cc2c(cnn2-c2ccccc2)C(NC(=O)CCc2ccncc2)C1 (stereo unspecified) | -1 | 2 | i | -8 | -2 | -2 | -1 | -8
Cn1nc(C(=O)OCC(=O)NCCc2ccccc2)c2ccccc2c1=O | -2 | -5 | i | 4 | -10 | 0 | 4 | -48
Cc1ccc(S(=O)(=O)CC(=O)Nc2ccccn2)cc1 | -1 | -5 | i | -12 | -1 | -3 | 0 | -16
Cc1nc(-c2ccc3c(c2)OCCCO3)cs1 | -1 | -15 | i | -4 | -67 | 1 | -1 | ·
COc1ccc(CCNC(=O)C2CCN(C(=O)N(C)C)CC2)cc1OC | -2 | -8 | i | -10 | · | -1 | 3 | -12
CCc1c(C(=O)NNC(=S)NC2CCCCC2)csc1C | 6 | -11 | i | 3 | 7 | 7 | 3 | -32
C[C@H](CO)N1C[C@H](C)[C@@H](CN(C)Cc2cccc(C(=O)O)c2)Oc2cc(Br)ccc2S1(=O)=O | · | · | · | · | 6[16.7 µM] | 1 | 1 | -19&5
CCN(CC(=O)Nc1ccc(NC(C)=O)cc1)C(=O)C1CCC1 | · | -6 | i | · | -4 | -1 | 0 | -12
COc1ccccc1NC(=O)CSc1ccc(-c2ccco2)nn1 | 2 | -4 | i | 2 | 4 | 0 | -2 | -4
O=C(COC(=O)/C=C/c1ccccc1)NC1CCCCC1 | · | -22 | · | · | · | 1 | 3 | -10
CCS(=O)(=O)Nc1ccc(C(=O)CC2(O)C(=O)Nc3ccccc32)cc1 (stereo unspecified) | 9 | -19 | i | -8 | -9 | 4 | 6 | -15
CC1CCN(C(=O)Cn2cc(C(=O)C3CC3)c3ccccc32)CC1 | 9 | -22 | · | 7 | · | -1 | -2 | -17
COc1ccc(C(=O)N2CCN(c3ccc(F)cc3)CC2)cc1S(=O)(=O)NC1CC1 | · | -12 | · | · | -22 | -1 | 0 | -2
Cc1ccc(NC(=O)CSc2ccc(Br)cc2)cc1S(=O)(=O)N1CCOCC1 | · | -4 | i | · | · | 4 | -20 | ·
Fc1ccccc1NC(=S)Nc1cccnc1 | 15 | -12 | i | -3 | 11 | -4 | -3 | ·
O=C(COC(=O)c1n[nH]c(=O)c2ccccc12)c1ccc(Br)cc1 | 10 | -9 | i | -9 | -8 | -1 | -1 | -3
Cc1ccc(S(=O)(=O)N2CCN(C(=O)COC(=O)/C=C/c3cccc([N+](=O)[O-])c3)CC2)c(C)c1 | · | · | · | · | -19 | -4 | -2 | -21
Cc1nc(C)c(C(=O)N/N=C/c2c[nH]c3ccccc23)s1 | 3 | 11 | i | -2 | · | 3 | -3 | -9

A portion from further up:
SMILES | PABP FP inh | CSC inhib | Rce1 inh | eIF4H inh | Env fusion inh | MT1-MMP act inh | MT1-MMP act inh RFP | UUG fidelity | others
COc1ccc(/C=N/NC(=O)c2ccccc2O)cc1COc1ccccn1 | -2 | -11 | i | -6 | -6 | 5 | 3 | -12
O=C(Nc1ccc2oc(-c3ccccc3F)nc2c1)c1ncn[nH]1 | -4 | 28 | i | 24 | -218 | 7 | 2 | -18
COc1ccc(-n2c(C)nnc2SCC(=O)N2C(C)CCCC2C)cc1 (stereo unspecified) | 11 | -3 | i | 2 | · | -1 | 4 | -2
Cc1cccc(S(=O)(=O)N(C)C[C@H]2OCc3cn(nn3)CCCC(=O)N([C@@H](C)CO)C[C@@H]2C)c1 | · | · | · | · | -15[16.7 µM] | 0 | 6 | -15&-12&-17
COCC(C)n1c(C)cc(C(=O)COc2ccc(C)nc2[N+](=O)[O-])c1C (stereo unspecified) | -2.1* | -4 | i | 70* | 5 | -2 | 7 | · | eIF4H inh retest=70*;PABP FP inh retest=57*
